Screening data as filed in PubChem BioAssay.
TRPML1 inh – human mucolipin-1 channel inhibition. 390,000 tested, 0.02% active. Q9GZU1. AID 624415. activity change, negative = inhibition, % (no concentration beside the values). TRPML1-inducible cells, Ca2+ dye fluorescence, FDSS; stronger effect = lower value; inhibition of EC80 agonist-evoked calcium signal; in the data active means activity change below about -50%; inconclusive means about -30% to -50%; inactive means above about -30%;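 also: stimulus is agonist 54-4 at its EC80 concentration; % is scaled to controls: 0 for no effect and ±100 for the full control effect; compound concentration not given in the record; the text of the record puts the active cut at -80%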
Target sequence (Q9GZU1 whole entry, looked up): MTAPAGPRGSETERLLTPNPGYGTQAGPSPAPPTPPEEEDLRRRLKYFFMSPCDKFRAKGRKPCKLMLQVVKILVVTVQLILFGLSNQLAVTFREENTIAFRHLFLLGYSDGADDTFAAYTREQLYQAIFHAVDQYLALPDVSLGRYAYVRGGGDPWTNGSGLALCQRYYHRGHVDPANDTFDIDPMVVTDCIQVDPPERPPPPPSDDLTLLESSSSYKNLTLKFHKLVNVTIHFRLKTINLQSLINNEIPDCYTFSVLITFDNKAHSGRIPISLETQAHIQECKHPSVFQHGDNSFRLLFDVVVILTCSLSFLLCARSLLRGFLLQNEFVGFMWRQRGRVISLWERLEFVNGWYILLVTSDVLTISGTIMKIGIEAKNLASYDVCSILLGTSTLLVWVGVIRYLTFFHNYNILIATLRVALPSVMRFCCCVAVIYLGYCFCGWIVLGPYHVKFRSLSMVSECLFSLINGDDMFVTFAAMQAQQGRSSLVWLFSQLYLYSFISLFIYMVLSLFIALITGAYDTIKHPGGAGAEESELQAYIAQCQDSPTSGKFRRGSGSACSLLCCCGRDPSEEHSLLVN
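Tet-induced TRPML1-DL cells loaded with Ca8 no-wash calcium dye were read kinetically on FDSS. Compound addition was followed by EC80 agonist 54-4 (4 uM final); inhibition was read over 110 s.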
CtBP-E1A inh – inhibitors of CtBP/E1A interaction; AlphaScreen GST-E1A/His-CtBP binding, 1536-well; stronger effect = lower value; control for the full effect not named in the record; activity change, % (concentration not given with the values); 340,000 tested, 0.49% active; AID 651724; in the data active means activity change below about -65%; inconclusive means about -30% to -65%; inactive means above about -30%; also: % is scaled to controls: 0 for no effect and ±100 for the full control effect
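AlphaScreen with 125 nM GST-E1A and 125 nM His-CtBP (5X stocks) in Tris pH 8.0, 300 mM NaCl, BSA, Tween 20, TCEP. Compounds preincubated 2 h at 37 deg C, then glutathione donor/nickel acceptor beads added for 1 h at 37 deg C in dark.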
PINK1 expr mod – changes PINK1 expression; 410,000 tested, 0.2% active; AID 624263; PINK1 immunofluorescence, high-content cytometry, 24 h; Potency, µM (top dose mostly 76.6 µM), without a hit: top-dose activation (PINK1 increase), hits mostly activators; active = well fitted activation curve with a large enough effect; inconclusive = small, poorly fitted or top-dose-only effect; inactive = flat fitted curve, though single readings scatter; cell line not stated here;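 also: potency is read from the fitted curve at half-maximal effect; % of control where 0% means no effect; nearly all actives have a fitted effect of over 65% in size; a mitochondrial uncoupler was the plate control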
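Measures PINK1 amount and localization on or inside mitochondria by immunofluorescence. Stable cells get compounds at 5 concentrations for 24 hours before fixation and staining; CCCP controls included.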
Six1-Eya2 blk – blocks human Six1 binding to Eya2; AlphaScreen GST-Six1/His-Eya2 binding, biochemical; stronger effect = lower value; control for the full effect not named in the record; Q15475+O00167; AID 651725; 360,000 tested, 0.56% active; activity change, % (no concentration beside the values); in the data active = activity change below about -65%; inconclusive = about -30% to -65%; inactive = above about -30%; also: % is scaled to controls: 0 for no effect and ±100 for the full control effect; compound concentration not given in the record
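Homogeneous AlphaScreen proximity assay pairing GST-Six1 with His-tagged Eya2 (added as 5X mix: 250 nM and 500 nM) in 50 mM Tris pH 8.0, 300 mM NaCl, 1 mM TCEP. Glutathione donor and nickel acceptor beads; 1 h, 37 °C, dark.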
D2 agonist – activates the human D2 dopamine receptor; P14416; DiscoveRx PathHunter D2 beta-arrestin, luminescence, 90 min; 100% = 57 uM dopamine signal; activation, % (no concentration beside the values); 360,000 tested, 0.084% active; in the data active = activation above about 40%; inconclusive = about 15% to 40%; inactive = below about 15%; also: compound concentration not given in the record; the text of the record calls up to 30% inactive
Target sequence (P14416 whole entry, looked up): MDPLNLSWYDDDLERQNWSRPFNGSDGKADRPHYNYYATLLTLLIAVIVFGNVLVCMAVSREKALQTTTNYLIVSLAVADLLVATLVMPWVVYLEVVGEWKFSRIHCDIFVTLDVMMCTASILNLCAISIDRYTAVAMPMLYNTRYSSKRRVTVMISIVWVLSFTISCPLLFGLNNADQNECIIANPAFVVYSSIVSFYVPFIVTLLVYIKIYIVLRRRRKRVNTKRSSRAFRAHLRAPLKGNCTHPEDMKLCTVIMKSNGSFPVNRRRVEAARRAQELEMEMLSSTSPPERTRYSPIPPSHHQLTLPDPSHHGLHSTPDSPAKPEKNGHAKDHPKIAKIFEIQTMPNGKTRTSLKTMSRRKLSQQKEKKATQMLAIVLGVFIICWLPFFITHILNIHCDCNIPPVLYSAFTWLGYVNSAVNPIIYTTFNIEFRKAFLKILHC
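Agonist mode: compounds alone added to overnight-plated D2 PathHunter cells for 90 min at 37 C, with 57 uM final dopamine (EC100) defining full response. Beta-arrestin recruitment detected by chemiluminescent reagent, read after 1 h at ambient temperature.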
TRPML1 ag – activates the human TRPML1 channel; Q9GZU1; TRPML1-expressing cells, Ca2+ dye fluorescence, FDSS; host cell line not named in the record; reference of the full effect not given here; activation, % (no concentration beside the values); 410,000 tested, 0.12% active; in the data active = activation above about 50%; inconclusive = about 30% to 50%; inactive = below about 30%; also: 0% is about no effect; the text of the record puts the active cut at 80%
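Tet-induced TRPML1-DL cells, 1,500 per well, cultured overnight, were loaded with a no-wash Ca2+ dye for 45–90 min. Calcium fluorescence was recorded on the FDSS for 110 s after compound addition, before the EC80 agonist (4 uM 54-4) was added.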
An asterisk follows results filed as active; u = inconclusive; x = no result given; & = joins results of further samples; [ ] = dose if it differs, or a comment.

The line under a structure holds: D2 agonist	Six1-Eya2 blk	PINK1 expr mod	TRPML1 ag	CtBP-E1A inh	TRPML1 inh
1	COc1ccc(CN(CC(=O)NCC2CCCO2)C(=O)CNS(=O)(=O)c2ccc(C)cc2)cc1 (stereo unspecified)
    -0.9	2.8	1.5%	-0.7	8.2	4.2
2	CC(C)[C@H]1CC[C@@H](C)C(C(=O)c2ccccc2)C1=O (stereo partly specified)
    -3.5	8.9	3.9%	2.2	1.3	-5.4
3	COC(=O)c1c(NC(=O)COC(=O)c2ccccn2)sc(C)c1C
    1.2	-1.4	1.0%	-0.4	-1.5	1.5
4	COc1ccc(C/C(C)=N/NC(=O)c2cc(C)oc2C)cc1
    0.6	1.0	-0.7%	2.2	8.0	11.2
5	C[C@@]12C(=O)Nc3ccccc3C(=O)N1[C@H]1c3cc(Cl)ccc3OC[C@@H]1[C@@H]2c1ccccc1
    -1.3	-8.2	3.8%	1.0	2.5	-5.1
6	Cc1c(Cl)cccc1NC(=O)CSc1nc2ncc(Cl)cc2[nH]1
    -4.6	10.4	u	0.7	x	1.9
7	CCOc1ccc(OCCC(=O)OCC(=O)N2CCN(c3ccc(OC)cc3)CC2)cc1
    -1.6	-2.1	0.8%	1.3	10.4	-5.5
8	CC1(C(=O)NC2CCCCCCC2)CCC(=O)N1Cc1cccnc1 (stereo unspecified)
    0.2	1.8	6.4%[38.3 µM]	0.2	13.3	-3.1
9	COc1ccc(/C=N/NC(=O)c2nonc2C)cc1
    -4.5	2.7	2.1%	-0.5	2.6	-1.8
10	O=C(CSc1ccc(C(F)(F)F)cc1[N+](=O)[O-])N1CCOCC1
    -8.8	5.4	3.3%	0.0	2.7	-0.5
11	O=C1C=C(c2cccc(CO)c2)C[C@@H](c2ccc3c(c2)OCO3)C1
    -3.8	1.0	-0.1%	0.4	-2.4	-24.8
12	CC(=O)c1ccc(C(=O)N2CCCC(CNC(=O)c3ccccc3Cl)C2)cc1 (stereo unspecified)
    -6.2	-10.0	-0.2%	0.2	-0.4	10.4
13	O=C(c1cnn(Cc2ccccc2)c1)N1CCN(S(=O)(=O)/C=C/c2ccccc2)CC1
    5.0	-0.4	0.8%	1.1	3.4	10.9
14	COc1cc2c(cc1OC)CN(C(=O)CCOc1ccccc1C)CC2
    -5.2	-9.6	7.4%	-1.5	6.8	15.3
15	COc1ccc(C(=O)NCCCSc2ccccc2)cc1F
    -0.3	-2.5	1.1%	-0.3	7.7	-2.8
16	CCN(C(=O)CCS(=O)(=O)c1ccc2c(c1)oc(=O)n2C)c1ccc(OC)cc1
    -5.3	1.6	-1.7%&3.8%	-0.2&-0.4	8.2	-11.1&9.4
17	Cc1cc(C(=O)OCC(=O)Nc2ccccc2)c(C)o1
    1.2	7.6	0.2%	-0.7	0.0	-19.7
18	Cc1c(NC(=S)/C=C2\N(C)c3ccccc3C2(C)C)c(=O)n(-c2ccccc2)n1C
    -6.4	-17.6	5.2%[38.3 µM]	0.2	-15.2	-2.8
19	Cc1ccc(C)n1-c1nnc(N2CCC(C(=O)NCc3ccc(F)cc3)CC2)s1
    x	x	-0.3%	-0.4	x	-1.1
20	O=[N+]([O-])c1cc(CN2CCCCCC2)ccc1O
    -3.4	-4.6	-0.8%	-0.2	-0.8	15.6
21	COc1ccc(N2CC(C(=O)Nc3nc4ccc(OC)cc4s3)CC2=O)cc1 (stereo unspecified)
    -0.9	u	2.6%	0.3	5.5	-18.0
22	O=C(Nc1ccc(S(=O)(=O)N2CCCC2)cc1)C1CC(=O)N(CCc2ccccc2)C1 (stereo unspecified)
    -3.9	0.7	-1.7%	0.5	-10.2	2.7
23	Cc1ccc(C)c(NC(=O)COC(=O)Cn2c(C)csc2=O)c1
    -6.2	20.8	-1.8%	1.0	15.1	-4.6
24	N#CCCN(C(=O)COC(=O)CCC(=O)c1cccs1)c1ccccc1
    -2.8	4.9	0.4%	-0.6	-1.7	-4.0
25	CCOCc1nnc(NC(=O)c2ccc(NC(C)=O)cc2)s1
    -2.5	2.1	1.7%	0.0	12.8	-3.7
26	CCC(=O)N1CCc2cc(S(=O)(=O)NC(C(=O)NCCc3ccccc3)C(C)C)ccc21 (stereo unspecified)
    x	x	1.1%	-0.1	x	-12.0
27	COC(=O)c1c(NC(C)=O)sc(C)c1C
    -3.2	-2.1	1.6%	-1.1	0.0	-6.9
28	COc1ccc(S(=O)(=O)N2CCCCCC2)cc1C(=O)N1CCCC(C(F)(F)F)C1 (stereo unspecified)
    -4.4	3.2	0.0%	0.8	4.7	10.6
29	CC(C)CC(=O)Nc1nnc(S(=O)(=O)N(C)c2ccc(Cl)cc2)s1
    1.5	6.9	1.2%&-0.7%	-0.9&2.2	x	-10.3&22.0
30	C=CCCCCCCCCC(=O)NNC1=CC(=O)CC(C)(C)C1
    -1.8	3.4	-1.5%	-0.7	-1.2	-2.6
31	CCCCNC(=S)NC(=O)c1ccc([N+](=O)[O-])cc1
    1.8	-28.6	2.3%	3.7	-0.2	3.1
32	COc1ccc(/C=N/NC(=O)c2ccc(COCC(F)(F)C(F)F)cc2)cc1
    -2.5	0.7	29.8%	0.8	-0.1	-15.5
33	O=C(CC1NCCNC1=O)Nc1cccc(F)c1 (stereo unspecified)
    x	x	1.5%	1.9	x	5.8
34	O=C(NCC1CCCO1)c1cc2c(s1)CCC2 (stereo unspecified)
    3.0	0.4	-1.9%	3.3	-2.2	21.7
35	O=C(c1coc(=O)c(Br)c1)N1CCCc2ccccc21
    -3.6	u	3.6%	-0.5	-18.0	4.1
36	CCC(Cc1ccccc1)NC(=O)C1=C(C)C(=O)OC12CCC(C)CC2 (stereo unspecified)
    2.3	8.4	2.8%	-0.2	7.9	-6.9
37	NC(=O)Cn1c(=O)n(Cc2ccccc2)c(=O)c2cccnc21
    -10.6	7.2	0.2%	1.1	x	44.0
38	COC(=O)c1ccccc1NC(=O)c1cc(C)nc2c1c(C)nn2-c1ccc(C)cc1
    x	x	1.1%	-0.5	x	2.1
39	COc1ccc([C@H]2CC(=O)C[C@@H](CCn3cc(-c4ccncc4)nn3)O2)cc1
    x	9.3	0.0%	-0.2	7.1	x
40	CN(C)c1ccc(C(C(=O)NC2CCCCC2)N(Cc2ccco2)C(=O)c2snc(C(N)=O)c2N)cc1 (stereo unspecified)
    2.1	-24.5	-1.6%	0.7	-21.8	-4.8
41	CC(Sc1ncn[nH]1)C(=O)c1c(N)n(C)c(=O)n(C)c1=O (stereo unspecified)
    1.1	2.6	1.0%	0.3	-16.9	-24.3
42	C[C@@H](NC(=O)[C@@H]1Cc2ccccc2CN1C(=O)OC(C)(C)C)C(=O)NC1CCCCC1
    -2.4	-2.8	0.5%	-0.4	-1.7	4.6
43	Cc1cc(Cl)ccc1OCC(=O)NCC(c1cccs1)N1CCOCC1 (stereo unspecified)
    0.3	1.0	5.7%	0.3	6.5	2.8
44	O=C(CSc1nc2ccccc2c(=O)n1-c1ccccc1)Nc1ccc2c(c1)CCC2
    2.7	-1.9	3.6%	1.1	-0.1	x
45	CC(=O)Nc1cc(C(C)(C)C)c(O)c(C(C)(C)C)c1
    2.6	0.6	7.0%[38.3 µM]	-0.8	4.0	4.0
46	Cc1ccc(NC(=O)c2ncn(CCCNCc3ccccc3)n2)cc1C
    -0.1	-7.0	2.0%	-0.7	-1.5	-8.6
47	Cc1c(C(=O)NC(C(C)C)C(C)C)cccc1[N+](=O)[O-]
    -4.6	5.9	-1.8%	0.1	13.8	1.0
48	CC(NC(=O)Nc1ccc([N+](=O)[O-])cc1)C(c1ccccc1)N1CCOCC1 (stereo unspecified)
    -7.0	-1.7	0.6%	-0.6	-4.6	-3.4
49	O=C(COc1ccc(Cl)cc1)NCc1nnc(SCC(=O)Nc2ccccc2)o1
    -1.6	1.1	-1.1%	2.3	-0.7	9.5
50	O=C(NNC(=S)NC(=O)c1ccccc1Cl)c1cccc([N+](=O)[O-])c1
    -6.7	-24.1	-0.5%	2.9	-7.8	-0.4

(continued)
The line under a structure holds: D2 agonist	Six1-Eya2 blk	PINK1 expr mod	TRPML1 ag	CtBP-E1A inh	TRPML1 inh
51	COc1ccc(OC)c(-c2cc(C(=O)Nc3ccccc3C(N)=O)c3ccccc3n2)c1
    7.3	4.5	-1.4%	-0.9	x	-6.5
52	CCCNC(=O)NS(=O)(=O)c1cnccc1Sc1ccc(Cl)cc1
    -1.1	0.0	-2.1%	0.5	1.3	28.9
53	CCCCn1c(N)c(Br)c(=O)[nH]c1=O
    -2.3	3.0	2.1%	-0.4	x	-10.2
54	CC(O)c1n(C)c(Cl)c[n+]1C (stereo unspecified)
    -3.5	4.5	-0.6%	0.2	10.5	2.8
55	CN1CCCC(OC(=O)c2cccc(Br)c2)C1 (stereo unspecified)
    1.4	-14.6	0.4%	1.8	-4.7	-6.0
56	CCOC(=O)c1oc2ccccc2c1CN1CCN(c2ccccc2)CC1
    -3.4	u	0.5%	1.5	-21.7	15.8
57	O=C(c1cnc(N2CCN(c3ncccn3)CC2)c2ccccc12)N1CCN(c2ccccn2)CC1
    1.1	-23.6	0.1%	0.6	-25.9	2.0
58	CCN1C(=O)c2ccccc2Sc2ccc(NC(=O)Cc3ccc(OC)c(OC)c3)cc21
    x	x	0.7%	2.0	x	8.0
59	COc1ccc2ccc(C(C)(C(C)=O)C(=O)OC(C)C)cc2c1 (stereo unspecified)
    -3.1	25.9	0.3%	2.9	-8.5	24.2
60	Cc1cccc(NCc2nc(SCC(N)=O)n[nH]2)c1
    0.3	1.7	4.7%[38.3 µM]	-0.3	3.2	-6.0
61	COc1ccc(CCC(=O)Nc2cc(S(=O)(=O)N3CCOCC3)ccc2OC(C)C)cc1
    -5.2	4.5	0.9%	0.5	-0.1	20.0
62	CC(NC(=O)C1CCCN(C(=O)c2ccc(Cl)cc2)C1)c1cccc(C(F)(F)F)c1 (stereo unspecified)
    -0.4	3.7	-0.9%	1.3	-4.4	-1.7
63	COc1ccc(OC)c2sc(N3CCN(C(=O)c4ccc([N+](=O)[O-])s4)CC3)nc12
    -3.4	0.0	6.5%	-0.8	5.1	-1.9
64	COc1ccccc1OCCCn1c(C2CC(=O)N(c3ccc(F)cc3)C2)nc2ccccc21 (stereo unspecified)
    x	x	0.1%	4.6	x	12.0
65	COc1ccc(N2CCN(C(=O)c3cccc(N4C(=O)C5CC=CC(C)C5C4=O)c3)CC2)cc1 (stereo unspecified)
    -2.1	-6.6	0.7%[38.3 µM]	-0.3	2.4	-0.9
66	COC(=O)C1CCN(C(=O)COC(=O)c2cc(-c3cccs3)nn2-c2ccccc2)CC1
    -3.0	-8.1	1.7%	0.4	-2.9	5.1
67	O=C1C2C3C=CC(C2C(=O)N1c1cccc(O)c1)C1C2C(=O)N(c4cccc(O)c4)C(=O)C2C31 (stereo unspecified)
    -2.3	-0.9	-1.8%	0.6	x	17.3
68	COCc1ccc(CN2CCCC(C(=O)Nc3ccc(-c4cccc(OC)c4)cc3)C2)o1 (stereo unspecified)
    3.5	-13.6	2.4%	1.7	-15.4	1.4
